Screening results as filed in PubChem BioAssay.
ClpP mod – qHTS Assay for Activators of ClpP. ATP-dependent Clp protease proteolytic subunit (Bacillus subtilis (strain 168)), P80244. purified B. subtilis ClpP, FRET peptide cleavage, 20 min. Potency, µM (series often up to 57.5 µM), for inactives: at the top dose activity change, negative = active. 340,000 tested, 1.9% active. AID 651965, 2013; active = well fitted falling curve with a large enough effect; inconclusive = small, poorly fitted or top-dose-only effect; inactive = no such curve, though single readings can be large or run the other way; note: potency is the fitted concentration of half-maximal effect; the source files actives as falling curves though it sought activators and does not explain the sign; nearly all actives have a fitted effect of over 65% in size; many hits overshoot -100%
Target sequence (P80244 whole entry, looked up): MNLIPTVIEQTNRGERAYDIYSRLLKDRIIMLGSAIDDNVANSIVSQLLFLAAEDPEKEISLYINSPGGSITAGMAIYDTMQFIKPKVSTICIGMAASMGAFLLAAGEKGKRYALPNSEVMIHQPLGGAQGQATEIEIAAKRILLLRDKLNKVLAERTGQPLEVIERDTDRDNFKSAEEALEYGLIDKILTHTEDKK
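Purified B. subtilis ClpP, 10 microg/mL final in Tris/HCl pH8 with KCl, BSA, glycerol and Tween-20, cleaved an Abz/nitrotyrosine-quenched decapeptide. Fluorescence (ex 320, em 430) was read at 0 and 20 min at room temperature. Delta was normalized to 5.8 microM ADEP and DMSO/no-enzyme controls.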
Menin-MLL FL inh – menin-MLL binding inhibition, fluorescein peptide; Fluorescence polarization, fluorescein-MLL peptide displacement from menin; 290,000 tested, under 10 active; FP activity change, % at 61.4 µM; AID 1766; inconclusive = falling polarisation curve, or a change in total fluorescence; inactive = total fluorescence flat and polarisation flat or rising; no compound was filed as active; the % refers to the polarisation; negative = inhibition;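 note: % of control where 0% means no effect; inhibitors lower the polarisation; unlabelled MLL peptide was the positive control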
TRPML1 inh – blocks the human TRPML1 channel | Q9GZU1 | TRPML1-inducible cells, Ca2+ dye fluorescence, FDSS; hits give low values; inhibition of EC80 agonist-evoked calcium signal | activity change, negative = inhibition, % (no concentration beside the values) | 390,000 tested, 0.02% active | AID 624415; in the data active means activity change below about -50%; inconclusive means about -30% to -50%; inactive means above about -30%;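 note: stimulus is agonist 54-4 at its EC80 concentration; % is set by controls: 0 for no effect and ±100 for the full control effect; compound concentration not given in the record; the text of the record puts the active cut at -80%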
Target sequence (Q9GZU1 whole entry, looked up): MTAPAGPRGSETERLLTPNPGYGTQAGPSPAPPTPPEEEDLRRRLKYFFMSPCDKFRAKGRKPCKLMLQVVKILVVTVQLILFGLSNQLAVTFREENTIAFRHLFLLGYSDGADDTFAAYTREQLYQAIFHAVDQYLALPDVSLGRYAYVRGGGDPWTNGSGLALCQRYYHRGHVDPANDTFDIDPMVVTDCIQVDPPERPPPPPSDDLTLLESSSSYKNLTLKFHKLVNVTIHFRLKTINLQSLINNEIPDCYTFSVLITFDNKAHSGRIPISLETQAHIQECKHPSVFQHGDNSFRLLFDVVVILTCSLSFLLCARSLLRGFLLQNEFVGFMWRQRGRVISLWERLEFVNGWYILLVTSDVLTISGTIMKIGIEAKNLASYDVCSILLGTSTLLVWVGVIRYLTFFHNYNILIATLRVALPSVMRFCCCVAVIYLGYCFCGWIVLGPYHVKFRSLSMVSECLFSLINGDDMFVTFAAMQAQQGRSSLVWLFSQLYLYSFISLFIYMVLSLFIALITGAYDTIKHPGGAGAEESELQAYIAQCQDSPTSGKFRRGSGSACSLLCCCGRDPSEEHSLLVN
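Calcium fluorescence in TRPML1-DL cells induced overnight with Tet: a 110 s read after compound pin addition, then a 110 s antagonist read after challenge with 54-4 at 4 uM final (EC80).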
TRPML1 ag – agonists of human TRPML1 channel; TRPML1-expressing cells, Ca2+ dye fluorescence, FDSS; host cell line not named in the record; reference of the full effect not given here; activation, % (no concentration beside the values); Q9GZU1; 410,000 tested, 0.12% active; in the data active = activation above about 50%; inconclusive = about 30% to 50%; inactive = below about 30%; note: 0% is about no effect; the text of the record puts the active cut at 80%
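In this qHTS format, compounds were pin-transferred onto Ca8-dye-loaded TRPML1-DL cells induced with Tet overnight, and intracellular Ca2+ fluorescence was recorded kinetically for 110 s after a 10 s baseline. A subsequent 4uM final 54-4 (EC80) addition followed by a second 110 s read served as the antagonist phase.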
TRPV1 PAM – potentiators of human vanilloid receptor 1 (TRPV1); potentiation, % at 8.33 µM; TRPV1-expressing cells, Fluo-8 calcium influx, capsaicin EC20 potentiation; host cell line not named in the record; control for the full effect not named in the record; Q8NER1; 320,000 tested, 0.02% active; active means potentiation above 80%; inconclusive means 30% to 80%; inactive means below 30%; note: 0% is about no effect
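TRPV1-expressing cells were cultured overnight at 35.5C and loaded with Fluo-8 calcium dye for 40 to 90 min at room temperature. After a 10 s baseline, compound was added and calcium influx was read kinetically for 3 min (ex 480/em 520 nm).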
PINK1 modulator – changes PINK1 expression; 410,000 tested, 0.2% active; PINK1 immunofluorescence, high-content cytometry, 24 h; AID 624263; Potency, µM (top dose mostly 76.6 µM), for inactives: at the top dose activation (PINK1 increase), most hits filed as activators; active = well fitted activation curve with a large enough effect; inconclusive = small, poorly fitted or top-dose-only effect; inactive = flat fitted curve, though single readings scatter; cell line not stated here;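 note: potency is the fitted concentration of half-maximal effect; % of control where 0% means no effect; nearly all actives have a fitted effect of over 65% in size; a mitochondrial uncoupler was the plate control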
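Cells are seeded, rested 12 hours, then given compound at five concentrations or DMSO for 24 hours. After fixation, blocking and antibody staining, PINK1 amount and mitochondrial localization are scored; CCCP serves as control.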
Sfp PPTase inh – Sfp phosphopantetheinyl transferase inhibition. Biochemical Sfp PPTase activity, qHTS. Potency, µM, without a hit: max response, negative = inhibition, most hits filed as inhibitors. 310,000 tested, 3.5% active. Q9F4F7. AID 1490; active = well fitted inhibition curve with a large enough effect; inconclusive = small, poorly fitted or top-dose-only effect, or another doubt; inactive = no such curve, though single readings can be large or run the other way;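 note: the enzyme is Sfp with the accession as filed and its product quenches rhodamine fluorescence; potency is the fitted concentration of half-maximal effect; 0% = enzyme reaction without inhibitor and -100% = no enzyme wells; top concentration of the series not given in the record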
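Step 1, compound plus 15 nM Sfp-PPTase, 15 min, room temperature. Step 2, add rhodamine-CoA (5 uM) and BHQ-2-YbbR (12.5 uM). Step 3, read 525/598 nm fluorescence at 0 and 30 min.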
* hit, by the source's call; [ ] = remark or other dose.

O=C1CCC(OCc2ccccc2)CCN1[C@H](CSc1ccccc1)Cc1ccccc1 (some centres undefined) was read as ClpP mod -1.2%, TRPML1 ag 18 and PINK1 modulator 7.9%.
Screening CCCNC(=O)C1CCN(S(=O)(=O)c2ccc3[nH]c(=O)ccc3c2)CC1 returned ClpP mod -15%, Menin-MLL FL inh -1.0, TRPML1 inh -3, TRPML1 ag 0.2, TRPV1 PAM 6, PINK1 modulator -0.3% and Sfp PPTase inh 5%.
For O=C(COC(=O)c1ccc(F)cc1F)NC(=O)Nc1ccc2c(c1)OCCO2 the results were ClpP mod 1.2%, TRPML1 inh -10, TRPML1 ag 1.0, TRPV1 PAM 14 and PINK1 modulator 2.2%.
For CCc1ccc(C2N=C(N)Nc3nc4ccccc4n32)cc1 (centres undefined) the results were ClpP mod -1.1%, TRPML1 inh -5, TRPML1 ag -0.8 and PINK1 modulator 0.7%.
COc1ccc(N2C(=O)C3CCCN3C2c2ccccc2Cl)cc1 (centres undefined) was read as ClpP mod -0.4%, Menin-MLL FL inh -0.3, TRPML1 inh 15, TRPML1 ag 0.3, TRPV1 PAM -1, PINK1 modulator 5.2% and Sfp PPTase inh -5%.
Screening Cn1c(=O)cc(N2CCOCC2)[nH]c1=O returned ClpP mod -2.5%, Menin-MLL FL inh -1.1, TRPML1 inh 0, TRPML1 ag 0.0, TRPV1 PAM 22, PINK1 modulator 3.2% and Sfp PPTase inh -3%.
`COc1cc(-c2ccc(NC(=O)c3ccc(C)cc3)c(OC)c2)ccc1NC(=O)c1ccc(C)cc1` gave ClpP mod inconclusive, Menin-MLL FL inh -0.9, TRPML1 inh 8, TRPML1 ag -0.1, TRPV1 PAM inconclusive, PINK1 modulator 3.1%[38.3 µM] and Sfp PPTase inh 8%.
Cc1ccc(-n2c(SCC(=O)OC(C)C)nnc2-c2ccco2)cc1 was read as ClpP mod -2.3%, Menin-MLL FL inh 4.3, TRPML1 inh 18, TRPML1 ag 1.1, TRPV1 PAM 6, PINK1 modulator -0.8% and Sfp PPTase inh inconclusive.
CCOC(=O)C1CCN(C(=O)COc2ccc(S(=O)(=O)NC(C)C)cc2)CC1 was read as ClpP mod 0.8%, Menin-MLL FL inh 3.7, TRPML1 inh 0, TRPML1 ag -0.3, TRPV1 PAM 2, PINK1 modulator inconclusive and Sfp PPTase inh 11%.
COC(=O)c1c(-c2ccccc2)csc1NC(=O)c1c(-c2ccccc2)noc1C was read as ClpP mod inconclusive, Menin-MLL FL inh 8.0, TRPML1 inh 11, TRPML1 ag 0.3, TRPV1 PAM 10, PINK1 modulator -0.4% and Sfp PPTase inh -20%.
Screening COc1c(Br)cc(Br)cc1/C=N/NC(=O)c1ccncc1 returned Menin-MLL FL inh -4.3, TRPML1 inh -12, TRPML1 ag -0.8, TRPV1 PAM -11, PINK1 modulator 6.6% and Sfp PPTase inh 3%.
Screening Cc1ccc(CNC(=O)CCc2nnc(Cc3ccc(-c4ccccc4)cc3)o2)o1 returned Menin-MLL FL inh -1.6, TRPML1 inh -8, TRPML1 ag -0.3, TRPV1 PAM 15, PINK1 modulator 2.2% and Sfp PPTase inh 22µM*.
For COc1ccc(-c2nc(SCC(=O)Nc3nccs3)c(-c3ccc(Cl)cc3)[nH]2)cc1 the results were ClpP mod -8.8%, Menin-MLL FL inh -2.6, TRPML1 inh -6, TRPML1 ag -0.1, TRPV1 PAM 26, PINK1 modulator 5.2% and Sfp PPTase inh 2%.
`CCOC(=O)C1=C(N)Oc2ccc3ccccc3c2C1c1ccc(O)c(OC)c1` (centres undefined) gave ClpP mod -2.1%, Menin-MLL FL inh -3.1, TRPML1 inh 1, TRPML1 ag -0.7, TRPV1 PAM 2, PINK1 modulator 12% and Sfp PPTase inh -2%.
CCOC(=O)COc1cccc2c(=O)n(CC(=O)N3CCCCC3)ccc12 was read as ClpP mod -25%, Menin-MLL FL inh 4.7, TRPML1 inh 4, TRPML1 ag 0.1, TRPV1 PAM -1, PINK1 modulator 2.5% and Sfp PPTase inh -6%.
O=C(CCNS(=O)(=O)c1ccc2c(c1)CCCC(=O)N2)NCc1ccc(Cl)cc1 was read as ClpP mod -0.2%, TRPML1 inh -17, TRPML1 ag 0.7 and PINK1 modulator -0.6%.
For CC(C)(C)OC(=O)C[C@@H]1C/C=C\C[C@@H](CC(=O)NCCO)C(=O)N[C@H](Cc2c[nH]c3ccccc23)COC1=O the results were ClpP mod -4.2%, TRPML1 inh -16, TRPML1 ag 0.3 and PINK1 modulator -1.5%.
For COc1cc(OC)cc(C(=O)N[C@H](C(=O)Nc2nc3c(s2)CCCC3)C(C)C)c1 the results were ClpP mod -7.5%, Menin-MLL FL inh 6.7, TRPML1 inh 0, TRPML1 ag -0.4, TRPV1 PAM -26, PINK1 modulator 9.5% and Sfp PPTase inh -3%.
`CCSc1ccc2nnc(-c3ccc(F)cc3)n2n1` gave ClpP mod -29%, Menin-MLL FL inh 3.3, TRPML1 inh 13, TRPML1 ag 1.2, TRPV1 PAM -11, PINK1 modulator -0.4%[38.3 µM] and Sfp PPTase inh 4%.
`O=C(COc1ccc(F)cc1)Nc1nnc(C2CCCCC2)s1` gave ClpP mod -2.5%, TRPML1 inh -7, TRPML1 ag 0.0, TRPV1 PAM 15, PINK1 modulator -1.2% and Sfp PPTase inh 21%.

The closing two compounds of the part above lead into the next:
`CCSc1ccc2nnc(-c3ccc(F)cc3)n2n1` gave ClpP mod -29%, Menin-MLL FL inh 3.3, TRPML1 inh 13, TRPML1 ag 1.2, TRPV1 PAM -11, PINK1 modulator -0.4%[38.3 µM] and Sfp PPTase inh 4%.
`O=C(COc1ccc(F)cc1)Nc1nnc(C2CCCCC2)s1` gave ClpP mod -2.5%, TRPML1 inh -7, TRPML1 ag 0.0, TRPV1 PAM 15, PINK1 modulator -1.2% and Sfp PPTase inh 21%.
O=C1CCCC/C=C\C[C@H](CC(=O)N(CCO)Cc2ccccc2)C(=O)NC[C@H](c2ccccc2)O1 was read as ClpP mod -1.2%, TRPML1 inh -8, TRPML1 ag -0.3 and PINK1 modulator -0.8%.
COc1ccc(Oc2ncc3nc(-c4ccc(F)cc4)c(=O)n(C4CC4)c3n2)cc1 was read as Menin-MLL FL inh 7.2, PINK1 modulator 4.4% and Sfp PPTase inh -12%.
For Nc1c(NCc2ccccc2)c2ccccc2oc1=O the results were ClpP mod 17%, Menin-MLL FL inh 0.3, TRPML1 inh 14, TRPML1 ag 0.6, TRPV1 PAM -11, PINK1 modulator 3.3%[38.3 µM] and Sfp PPTase inh inconclusive.
O=C(Nc1ccc(F)c(Cl)c1)c1nsc(Cl)c1Cl was read as ClpP mod -19%, Menin-MLL FL inh -6.3, TRPML1 inh 5, TRPML1 ag -0.7, TRPV1 PAM 0, PINK1 modulator 6.3% and Sfp PPTase inh 15%.
Screening Cc1cccc(NS(=O)(=O)c2ccc(C)c(C(=O)NCc3cccnc3)c2)c1 returned ClpP mod 0.5%, TRPML1 inh -8, TRPML1 ag -0.5 and PINK1 modulator 0.0%.
COc1ccc2c(CN3CCN(C(C)=O)CC3)cc(=O)oc2c1 was read as ClpP mod -24%, TRPML1 ag 0.0 and PINK1 modulator -0.5%.
`CC(=O)c1cccc(NC(=O)CN2C(=O)CC(c3ccc(C)cc3C)=Nc3ccccc32)c1` gave ClpP mod -13%, TRPML1 inh 6, TRPML1 ag 0.2 and PINK1 modulator -0.9%.
`Cc1c(C(=O)Nc2ccc(F)cc2F)sc2nc3n(c(=O)c12)N=C(c1ccccc1)CS3` gave ClpP mod 0.2%, TRPML1 inh -9, TRPML1 ag 0.1 and PINK1 modulator 11%.
For COc1ccc(OCC(=O)OCC(=O)N2C(C)CCCC2C)cc1 (centres undefined) the results were ClpP mod -3.4%, TRPML1 inh -11, TRPML1 ag 0.0, TRPV1 PAM -1 and PINK1 modulator -1.1%.
Cc1ccc(C2CC(c3cccs3)=NN2C(=O)c2ccco2)o1 (centres undefined) was read as Menin-MLL FL inh -0.8, TRPML1 inh 13, TRPML1 ag 1.1, TRPV1 PAM -13, PINK1 modulator 0.4% and Sfp PPTase inh inconclusive.
O=C(CCNS(=O)(=O)c1ccc(Br)s1)Nc1ccc(Br)cc1 was read as ClpP mod 2.0%, TRPML1 inh 19, TRPML1 ag 2.2 and PINK1 modulator 2.1%.
`Cc1ccnc(SCC(N)=O)n1` gave Menin-MLL FL inh -1.5, TRPML1 inh 3, TRPML1 ag 0.1, TRPV1 PAM -4, PINK1 modulator 3.3% and Sfp PPTase inh 8%.
Screening C[C@H](CO)N1C[C@H](C)[C@@H](CN(C)S(=O)(=O)c2cccc(F)c2)OCc2cnnn2CCCC1=O returned ClpP mod -0.7%, TRPML1 inh 0, TRPML1 ag 0.0 and PINK1 modulator -0.2%.
Screening Cc1ccc(S(=O)(=O)N(CC(=O)NCc2ccncc2)C2CCCCC2)cc1 returned ClpP mod -0.5%, Menin-MLL FL inh -1.1, TRPML1 inh -13, TRPML1 ag -1.2, TRPV1 PAM -18, PINK1 modulator -0.1% and Sfp PPTase inh 9%.
For O=C(NCCc1cccs1)C(c1ccccc1)c1ccccc1 the results were ClpP mod 0.2%, Menin-MLL FL inh 1.6, TRPV1 PAM -4, PINK1 modulator 0.8% and Sfp PPTase inh 17%.
CCOC(=O)C1CCN(Cc2cccc(Oc3ccc(Cl)cc3)c2)CC1 was read as ClpP mod 1.1%, Menin-MLL FL inh -2.3, TRPML1 inh 9, TRPML1 ag 2.7, TRPV1 PAM -2, PINK1 modulator 24% and Sfp PPTase inh -26%.
Screening Cc1cccc(OCCCC(=O)NNC(=O)CCN2CCN(c3ccccc3)CC2)c1 returned ClpP mod inconclusive, TRPML1 inh 3, TRPML1 ag 0.3, TRPV1 PAM 15 and PINK1 modulator 1.0%.
`OC(c1ccccc1)(c1ccccc1)C1CCN(C(=S)Nc2ccc(F)cc2)CC1` gave ClpP mod -3.5%, TRPML1 inh -15, TRPML1 ag 1.4 and PINK1 modulator 0.7%.
Screening COC(=O)c1ccccc1NC(=O)Cn1c(=O)cc(C)c2c(C)nn(C)c21 returned ClpP mod 0.3%, TRPML1 inh 13, TRPML1 ag 0.4 and PINK1 modulator 0.8%.

This is a random part of the collection; about 4.4% have a hit in one of these screens.
